Screening results from PubChem BioAssay.
VDR inhibitor: Inhibitors of the vitamin D receptor (VDR): qHTS. 400,000 tested, 0.93% active. Vitamin D3 receptor (Homo sapiens), P11473. Potency, µM, for inactives: max response, negative = inhibition, actives largely listed as inhibitors. VDR-SRC2-3 peptide fluorescence polarization, 2 h; active = well fitted inhibition curve with a large enough effect; inconclusive = small, poorly fitted or top-dose-only effect, or another doubt; inactive = no such curve, though single readings can be large or run the other way; note: series mostly up to about 120 µM
Target sequence (P11473 whole entry, looked up): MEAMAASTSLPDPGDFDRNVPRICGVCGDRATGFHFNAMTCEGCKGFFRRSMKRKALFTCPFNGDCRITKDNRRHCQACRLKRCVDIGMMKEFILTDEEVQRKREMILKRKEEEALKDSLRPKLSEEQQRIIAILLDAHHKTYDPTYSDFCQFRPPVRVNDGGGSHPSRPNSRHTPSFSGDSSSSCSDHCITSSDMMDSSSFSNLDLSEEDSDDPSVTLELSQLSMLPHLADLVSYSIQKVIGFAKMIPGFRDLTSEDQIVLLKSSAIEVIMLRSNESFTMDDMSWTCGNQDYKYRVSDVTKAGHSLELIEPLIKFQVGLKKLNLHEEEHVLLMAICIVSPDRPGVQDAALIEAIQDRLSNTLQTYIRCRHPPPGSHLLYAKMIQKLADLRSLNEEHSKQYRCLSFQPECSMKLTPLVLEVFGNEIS
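Fluorescence polarization assay measuring small-molecule disruption of VDR binding to the coregulator peptide SRC2-3. Compounds were pin-transferred (23 nl) into the reagent mix and incubated 2 h at room temperature before reading.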
The depositor's hits bear a star; ? = inconclusive; & = joins results of further samples. % is set by controls: 0 for no effect and ±100 for the full control effect; potency is the fitted concentration of half-maximal effect. The list is partial; rates above refer to the full screens.

compound | VDR inhibitor
CCOC(=O)c1ccc(NC(=O)CSC2=NC(=O)C(CC)C(=O)N2)cc1 (centres undefined) | 10%
CN1CCOc2cc(S(=O)(=O)NCc3ccc(S(N)(=O)=O)cc3)ccc21 | 15%
O=C(Nc1ccc(Cl)cc1)c1cc(-c2cccs2)on1 | 15%
CCN(CC)C(=O)C1CCN(C(=O)c2cnn(-c3ccccc3)c2-n2cccc2)CC1 | 7%
O=C1CCC2c3ccc4ccccc4c3CCN12 (centres undefined) | 7%
Cc1noc(C)c1CSc1nnc(-c2ccncc2)n1-c1ccc(Cl)c(Cl)c1 | 12%
CN(C(=O)c1ccc2c(c1)OCO2)C1(C(=O)NC2CCCC2)CCCCC1 | -7%
O=C(CN1CCN(S(=O)(=O)c2ccc(Br)cc2)CC1)N/N=C/c1cccnc1 | -7%
CCc1ccc(/C=C/C(=O)c2ccc(S(=O)(=O)N(C)C)cc2)cc1 | ?
COc1cccc(CNC(=O)CCn2ccc3cc(S(=O)(=O)N4CCCC4)ccc32)c1 | -4%&13%
Cc1nc2nc(C)c(CCC(=O)Nc3ccc4c(c3)OCO4)c(C)n2n1 | 0%
CCCC[C@@H]1CNCCN1CCc1cccc2ccccc12 | -7%
O=c1[nH]nc(-c2ccc(F)cc2)cc1Cc1cccs1 | 5%
COc1ccccc1N(CC(=O)NC1CCCC1)C(=O)c1csnn1 | -15%
COC(=O)CCc1ccc(O)cc1 | 4%
CC1CCN(C(=O)CSc2nnc(Cn3c(=O)sc4ccccc43)n2C)CC1 | 12%
N#Cc1c(-c2cccc(F)c2)cc(-c2ccccc2)nc1Br | 4%
Cc1ccc(C)c(OCCNc2ccc([N+](=O)[O-])cn2)c1 | -16%
Cc1ccc(C)c(S(=O)(=O)Nc2cc3c4c(c2)CC(=O)N4CCC3)c1 | 5%
COc1ccc(CNC2CCCCC2C)c(OC)c1 (centres undefined) | -5%
CC(=O)Nc1cc2c(cc1Br)OCCO2 | 16%
CCOc1ccc(OCC)c(C2C(C#N)=C(N)N(c3cccnc3)C3=C2C(=O)CC(C)(C)C3)c1 (centres undefined) | 8%
O=C(NCCCn1ccnc1)/C(=C/c1ccccc1)NC(=O)c1ccccc1 | -2%
COC(=O)c1cc(N2CCNCC2)nc2ccccc12 | -20%

A different layout for part of the listing above:
| VDR inhibitor | Structure |
| --- | --- |
| -15% | COc1ccccc1N(CC(=O)NC1CCCC1)C(=O)c1csnn1 |
| 5% | O=c1[nH]nc(-c2ccc(F)cc2)cc1Cc1cccs1 |
| 16% | CC(=O)Nc1cc2c(cc1Br)OCCO2 |

More compounds follow.
compound | VDR inhibitor
Cc1ncc([N+](=O)[O-])n1CCOC(=O)NC(NCc1ccccc1)C(Cl)(Cl)Cl (centres undefined) | 0%
c1cncc(-c2nc(NCC3COc4ccccc4O3)c3ccccc3n2)c1 (centres undefined) | 8%
CC(C)C(=O)N1CCN(c2ccc(NC(=O)COc3ccccc3[N+](=O)[O-])cc2)CC1 | 5%
CN(C)C(=O)N1CCC(C(=O)NCc2ccc(F)cc2)CC1 | -14%
CCC(=O)N1CCN(c2ccc(Cl)cc2NC(=O)c2ccc3c(c2)OCCO3)CC1 | 6%
CCOc1ccccc1N1CCN(C(=S)Nc2ccc(S(=O)(=O)Nc3ncccn3)cc2)CC1 | -15%
OCCCNc1ncnc2[nH]ncc12 | 2%
CCCCn1c(N)c(N(CC(C)C)C(=O)CCNC(=O)c2ccccc2Cl)c(=O)[nH]c1=O | -28%
CC(NC(=O)C1CCN(C(=O)Nc2ccccc2)CC1)c1ccc(Cl)cc1 (centres undefined) | -10%
COc1cc(/C=N/NC(=O)c2ccncc2)ccc1OCc1cnc(Cl)s1 | -8%
CCOC(=O)c1cccnc1SCC(=O)Nc1ccc(C)cc1 | -8%
CS(=O)(=O)c1ccc(C(=O)Nc2cccc(-c3nc4ccccc4[nH]3)c2)cc1 | 10%
O=C(OCC(=O)N1CCCCCC1)c1cnc(Cl)c(Cl)c1 | 0%
Cc1cc(C)cc(NC(=O)CN(C)CC(=O)N(CC(C)C)c2c(N)n(CC(C)C)c(=O)[nH]c2=O)c1 | -11%
CCOc1ccccc1N1CC(C(=O)Nc2cccc(S(=O)(=O)N3CCCCC3)c2)CC1=O (centres undefined) | -15%
O=C(NCCCN1CCCCCC1)c1ccc2c(Cl)c3c(nc2c1)CCCC3 | -13%
Cc1ccc(Nc2cc(=O)[nH]c(=O)[nH]2)c(C)c1 | 0%
CCOc1cccc(C(=O)N(Cc2ccc(CC)cc2)C2CCS(=O)(=O)C2)c1 (centres undefined) | -6%
O=c1cc(-c2ccsc2)oc2cc(-c3ccc4c(c3)OCO4)ccc12 | -8%
CC(=O)N1c2ccc(S(=O)(=O)NCC3CCC(C(=O)Nc4ccccc4C)CC3)cc2CC1C (centres undefined) | 4%
O=c1cc(O)n(-c2ccc(F)cc2)c(=S)[nH]1 | -27%
CC1CCc2nn(CC(=O)NC3CCCC3)cc2C1 (centres undefined) | 16%
O=C(CSc1nnc2ccccn12)NNC(=O)c1ccccc1 | -15%
CCOc1ccc(C(=S)N2CCOCC2)cc1 | -16%
CCCn1c(=O)c2ccccc2n2c(SCC(N)=O)nnc12 | 2%
COc1ccc(OC)c(/C=N/n2c(-c3n[nH]c4c3CCC4)n[nH]c2=S)c1 | 2%
Cc1nc(-c2ccc(C(=O)NCCO)cc2)cs1 | 9%
COC(=O)C1CCN(C(=O)COC(=O)c2cc(-c3ccccc3)nc3ccc(OC)cc23)CC1 | 28%
CNC(=O)Cn1c(=O)c2cccn2c2ccc(F)cc21 | 3%
CCOc1ccccc1CN1CCc2nc(Nc3ccc4c(c3)OCCO4)ncc2C1 | -1%
CCOC(=O)C1Nc2ccc(OC(F)(F)F)cc2C2C=CCC12 (centres undefined) | ?
CCOc1ccc(-n2nnnc2SCC(=O)Nc2ccc(NC(C)=O)cc2)cc1 | -5%
O=C(O)c1ccc(N/N=C2/CCSc3ccc(F)cc32)cc1 | -15%
CCCCN(C(=O)C1CCN(C(=O)c2ccccc2C)CC1)c1c(N)n(CCC)c(=O)[nH]c1=O | -7%
COC(=O)c1ccccc1NS(=O)(=O)c1cn(C)c(=O)n(C)c1=O | -4%
Cn1c(=O)c(NC2CCCCC2)c2c3c(cccc31)C(=O)c1ccccc1-2 | 0%
Cc1cc2nc3c(=O)n(C)c(=O)n(C)c3nc2cc1N=CN(C)C | 14%
CCCCN(CC)CCCNC(=S)Nc1ccc2nc(N3CCN(C)CC3)cc(C)c2c1 | -8%
O=C(CSc1nnc(CNC(=O)c2cccs2)o1)Nc1ccc2c(c1)OCO2 | 8%
Cc1cc2c(cc1C)NC(CC(=O)Nc1cccc(C)c1C)C(=O)N2 (centres undefined) | 5%
COc1cccc(-c2ncc3ccccc3c2COC(=O)c2ccc(C(F)(F)F)cc2)c1 | -2%
O=C(NC1CCCCC1)N1CCN(c2ncccn2)CC1 | -4%
Cc1cccc(C(=O)NC(C(=O)Nc2ccc(S(=O)(=O)Nc3nccs3)cc2)C(C)C)c1 (centres undefined) | 3%
Cc1cc(S(=O)(=O)N2CCCC2)ccc1OCC(=O)NCc1ccco1 | 5%
COc1ccc(OC)c(CNC(=O)c2nn(C)c3c2CS(=O)(=O)c2ccccc2-3)c1 | -18%&-1%
CCCN(CCC)S(=O)(=O)c1ccc(NC(=O)COc2ccccc2)cc1 | 6%
O=CNc1ccc2c(c1)Cc1cc([N+](=O)[O-])ccc1-2 | -11%
Cc1ccc(C(=O)Nc2cccc(S(=O)(=O)N3CCOCC3)c2)cc1[N+](=O)[O-] | 13%

(next part)
structure	VDR inhibitor
COCc1cc(C)nc(SCC(=O)Nc2cc3c(cc2C#N)OCO3)c1C#N	9%
O=S(=O)(NC1CCc2ccccc21)c1ccc(S(=O)(=O)N2CCCC2)cc1 (centres undefined)	4%
CC(=O)c1ccc(S(=O)(=O)N2CCN(c3nc(-c4cccs4)nc4ccccc34)CC2)cc1	2%
Cc1cccc(C(=O)NCC(=O)OCc2cc(=O)n3nc(CC(C)C)sc3n2)c1	6%
COc1ccc(CCC(=O)NCc2cn3ccc(C)cc3n2)cc1	-8%
Cn1c(SCC(=O)Nc2ccc(NC(=O)c3cccs3)cc2)nnc1-c1ccncc1	2%
Cc1nnc(NC(=O)c2c(-c3ccccc3)noc2C)s1	20%
CC(C)CCNC(=O)c1ccc(Cn2c(SCC(=O)NC(C)C)nc3ccccc3c2=O)cc1	13%
COc1cccc2sc(N(Cc3cccnc3)C(=O)c3ccc4c(c3)OCCO4)nc12	15%
CC(C)Oc1ccc(S(=O)(=O)N2CCOCC2)cc1NC(=O)Cc1ccsc1	-12%
O=C(NCCc1ccccc1F)C1CCC(=O)N(CCCN2CCCC2=O)C1 (centres undefined)	-4%
COC(=O)c1cc2oc(C)cc2n1Cc1ccc(Br)cc1F	-17%
Cc1ccc(OCCC(=O)NNC(=O)c2ccc(Br)cc2)cc1	-3%
CCN(CC)c1ccc2ccc(=O)oc2c1	22%
C#CC(C)(C)NC(=O)c1cnc(-c2ccccc2)nc1-c1ccccc1	-21%
CC(=O)Nc1cc2c(cc1[N+](=O)[O-])-c1ccccc1C2O (centres undefined)	?
COc1ccc2c(c1)c(=O)c(C(=O)c1ccc(F)cc1)cn2CC(=O)Nc1ccc(F)cc1	-26%
Cc1ccc(C(=O)NCCSC(C)(C)C)cc1	6%
CCCN(CCC)CCCNC(=O)C1CCN(S(=O)(=O)c2cccc3nsnc23)CC1	-12%&-13%
Cc1csc(NC(=O)C2CCN(S(=O)(=O)c3ccccc3F)CC2)n1	-4%
O=C(Nc1ccc(S(=O)(=O)N2CCCC2)cc1)c1ccc([N+](=O)[O-])cc1	-28%
COCCNC(=S)N(CCO)Cc1cc2cc3c(cc2[nH]c1=O)OCCO3	-21%
Cc1ccc2nc(/C=C/c3cccc(F)c3)ccc2c1	6%
CCCc1nnc(NC(=O)CCC(=O)NCc2ccccc2Cl)s1	-2%
O=C(Nc1ccc(Br)cn1)c1ccc2nccnc2c1	?
C/C(=N\N(c1ccccc1)c1ccccc1)c1ccc(O)cc1	11%
CC(C)(CNC(=O)c1ccccc1NS(C)(=O)=O)N1CCCCC1	11%
CN(Cc1ccccc1)C(=O)c1ccc(CSc2nc3cccnc3n2Cc2ccccc2)cc1	9%
Fc1cccc(CN2CCSCC2)c1	5%
COc1ccc(-c2cc(-c3ccc(N)cc3)nc(N)c2C#N)cc1OC	10%

Looked up above.
CC(C)CCNC(=O)c1ccc(Cn2c(SCC(=O)NC(C)C)nc3ccccc3c2=O)cc1 | VDR inhibitor: 13%
C#CC(C)(C)NC(=O)c1cnc(-c2ccccc2)nc1-c1ccccc1 | VDR inhibitor: -21%
Cc1ccc(C(=O)NCCSC(C)(C)C)cc1 | VDR inhibitor: 6%
COCCNC(=S)N(CCO)Cc1cc2cc3c(cc2[nH]c1=O)OCCO3 | VDR inhibitor: -21%

(further entries)
structure	VDR inhibitor
CCOC(=O)c1c(NC(=O)COC(=O)CNC(=O)c2ccc(Cl)cc2Cl)sc(C(=O)N(C)C)c1C	-4%
Clc1nc(-c2ccccn2)nc2scc(-c3ccccc3)c12	-16%
COc1ccc(NS(=O)(=O)c2ccc(I)cc2)cc1N1CCN(C)CC1	8%&-1%
C#C[C@]1(OC(C)=O)CC[C@H]2[C@@H]3CCC4=CC(=O)CC[C@@H]4[C@H]3CC[C@@]21C	?
CCOC(=O)C1=C(COC(=O)C2CC(=O)N(c3ccccc3F)C2)NC(=O)NC1C (centres undefined)	-5%
COc1cc(C(=O)NCCCc2nc3ccccc3n2CC(C)C)cc(OC)c1OC	-11%
Cn1c(=S)n(/N=C/c2cccs2)c2ccccc21	2%
CC(C)NC(=O)CN(Cc1ccc2c(c1)OCO2)C(=O)CCC(=O)Nc1ccccn1	2%
COc1ccccc1-c1nnc(SCC(=O)Nc2ccccc2F)o1	11%
COc1cccc(C(=O)NCC(=O)n2nc(C)cc2C)c1	3%
O=c1cc2nc(-c3ccccc3)nc(SCc3cccc(Br)c3)n2[nH]1	3%
CCC1CCCCN1S(=O)(=O)c1ccc(NC(=O)c2ccncc2)cc1 (centres undefined)	-18%
C=CCNC(=O)CSCc1ccc(Br)cc1	?
COc1ccc(NC(=O)CSc2nnc(-c3cccnc3)s2)cc1	3%
Cc1cc2[nH]c(=O)c(=O)[nH]c2cc1S(=O)(=O)Nc1cccc(C(F)(F)F)c1	1%
CC(C(=O)N1CCc2ccccc21)N(C)CC(=O)Nc1ccccc1Cl (centres undefined)	9%
Cc1cc(C(=O)COC(=O)c2ccc(O)cc2)c(C)n1CC1COc2ccccc2O1 (centres undefined)	15%
CCOc1ccc(-c2noc(CCC(=O)O)n2)cc1	1%
CCN(CC(=O)Nc1c(F)cccc1F)C(=O)Cn1[nH]c(=O)c2ccccc2c1=O	2%
Cc1cccc(CSc2nnc(NC(=O)CSc3nnc(C)s3)s2)c1	13%
Cc1ccc(CNC(=O)CCCn2nc(C)c3c(C)n(-c4ccccc4)nc3c2=O)cc1	-9%&10%
COc1ccc(C(=O)NNC(=O)CCn2nnc(-c3ccc(C)cc3)n2)cc1OC	-13%
CC1=CC(C)(C)N(S(=O)(=O)c2ccc(F)cc2)c2ccc(C)cc21	-5%
CN1c2ccccc2C(=O)/C(=C\Nc2ncccn2)S1(=O)=O	11%
Cc1ccccc1C(=O)NCC(=O)N1CCN(C/C=C/c2ccccc2)CC1	-15%
COCCn1ccc2c(OCC(=O)Nc3ccccc3OC)cccc2c1=O	11%
C(=Cc1cnnc2ccccc12)c1ccccc1	-1%
COc1cc(OC)cc(OCC(O)Cn2cnc3cc(C)c(C)cc32)c1 (centres undefined)	-15%

Ordered by the number under VDR inhibitor (highest first): some entries from above.
structure	VDR inhibitor
CCOC(=O)c1c(NC(=O)COC(=O)CNC(=O)c2ccc(Cl)cc2Cl)sc(C(=O)N(C)C)c1C	-4%
O=c1cc(-c2ccsc2)oc2cc(-c3ccc4c(c3)OCO4)ccc12	-8%
COc1cc(C(=O)NCCCc2nc3ccccc3n2CC(C)C)cc(OC)c1OC	-11%
